Screens: PubChem, National Center for Advancing Translational Sciences (NCATS)
AID923: qHTS Assay for Allosteric/Competitive Inhibitors of Caspase-1: Spectroscopic Profiling in AFC Spectral Region; compound fluorescence, AFC spectral region (405/520 nm); almost no hit is shown here; Potency, µM (titrated, usually from 57.5 µM), inactives show at the highest dose fluorescence increase, actives largely listed as activators; actives 1.1% (n = 75,000); AID 923, 2007; active means well fitted activation curve with a large enough effect; inconclusive means small, poorly fitted or top-dose-only effect;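 further: potency means the concentration at half of the fitted maximal effect; 0% is about no effect; scaled to a free AFC standard on each plate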
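Baseline compound fluorescence (AFC region, 405 nm ex/520 nm em) taken from the intercept of kinetic reads with 50 nM caspase-1 and 5 uM Ac-WEHD-AFC; normalized to an on-plate AFC standard curve; compounds titrated up to 57 uM.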
TSHR agonist: qHTS Assay for Agonists of the Thyroid Stimulating Hormone Receptor. actives 0.48% (n = 73,000). HEK293-CNG-TSHR cells (CNG channel as cAMP sensor), membrane potential dye, cAMP. Thyrotropin receptor (Homo sapiens), P16473. Potency, µM (top dose mostly 57.1 µM), for inactives: at the top dose activation, usual class: activators; active = well fitted activation curve of enough size with the parental cells flat; inconclusive = any curve in the parental cells; inactive = parental cells flat and receptor cells flat or falling; further: potency means the concentration at half of the fitted maximal effect; % of control where 0% means no effect; weak receptor curves with flat parental cells got no call and are not listed
Target sequence (P16473 whole entry, looked up): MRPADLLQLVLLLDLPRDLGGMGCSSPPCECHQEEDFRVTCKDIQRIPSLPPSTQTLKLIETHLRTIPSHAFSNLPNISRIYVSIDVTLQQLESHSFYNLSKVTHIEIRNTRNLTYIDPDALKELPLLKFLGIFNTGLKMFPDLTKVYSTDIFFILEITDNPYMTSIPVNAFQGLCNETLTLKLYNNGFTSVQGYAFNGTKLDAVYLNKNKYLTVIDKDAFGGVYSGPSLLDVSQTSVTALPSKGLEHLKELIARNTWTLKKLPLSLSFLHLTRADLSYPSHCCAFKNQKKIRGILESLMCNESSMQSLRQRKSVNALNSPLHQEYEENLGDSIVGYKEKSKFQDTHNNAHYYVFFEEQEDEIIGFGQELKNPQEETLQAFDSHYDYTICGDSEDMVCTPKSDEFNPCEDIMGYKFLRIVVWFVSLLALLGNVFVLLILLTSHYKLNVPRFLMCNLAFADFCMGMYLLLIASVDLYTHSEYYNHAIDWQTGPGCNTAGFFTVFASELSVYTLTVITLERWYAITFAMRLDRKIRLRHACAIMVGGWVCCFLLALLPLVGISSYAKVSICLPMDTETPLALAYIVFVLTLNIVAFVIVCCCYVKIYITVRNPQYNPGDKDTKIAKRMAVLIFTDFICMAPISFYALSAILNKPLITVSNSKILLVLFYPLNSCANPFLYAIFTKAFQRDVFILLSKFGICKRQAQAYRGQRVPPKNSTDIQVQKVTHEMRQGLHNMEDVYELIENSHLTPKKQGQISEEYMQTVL
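cAMP rise detected as CNG-channel membrane depolarization by fluorescent dye (emission 590 nm), 30 min after compound, following 60 min dye loading containing 100 uM RO 20-1724 at room temperature. Cells: TSHR/CNG HEK 293, with parental CNG HEK 293 as control.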
A647 fluor: qHTS Assay for Spectroscopic Profiling in A647 Spectral Region. max dye-equivalent concentration, M. Compound fluorescence, A647 channel (570/671 nm), Tris buffer. 59,000 tested, under 10 active; active means above 1 µM dye equivalent; inconclusive means 0.1 to 1 µM; inactive means 0.1 µM or less;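 further: values scaled relative to a standard on each plate; highest value over a series up to 38 µM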
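Each compound's intrinsic fluorescence at 570 nm excitation and 671 nm emission is measured across its concentration series in 100 mM Tris, pH 8.0, after 15 min at room temperature, and reported relative to an A647 curve.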
Resorufin autofl: qHTS Assay for Spectroscopic Profiling in Resorufin Spectral Region. Compound fluorescence, resorufin region 547/598 nm, buffer; hits give high values. max dye-equivalent concentration, M. actives 0.04% (n = 59,000); active = above 10 nM dye equivalent; inconclusive = 1 to 10 nM; inactive = 1 nM or less; a few of its hits are not listed in these tables; further: highest value over a series up to 38 µM
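Compounds in 100 mM Tris buffer, pH 8.0, incubated 15 min at room temperature, then read with 547 nm excitation and 598 nm emission filters. Fluorescence was converted to dye-equivalent concentration using an on-plate six-point resorufin standard curve.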
A488 autofl: qHTS Assay for Spectroscopic Profiling in A488 Spectral Region. compound autofluorescence, A488 spectral region, dye equivalency; hits give high values. max dye equivalency, M. actives 0.1% (n = 59,000); active = above 10 nM dye equivalent; inconclusive = 1 to 10 nM; inactive = 1 nM or less; about half of its hits are not listed in these tables;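 further: highest value over a series up to 38 µM; compound alone in buffer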
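Compounds pin-transferred into 100 mM Tris buffer, pH 8.0, incubated 15 min at room temperature, then imaged with 480 nm excitation/540 nm emission filters. Fluorescence converted to Alexa 488 dye-equivalent concentration via an on-plate six-point A488 standard curve.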
Active calls of the source: *; i = inactive; ? = inconclusive; · = no result given; & = joins results of further samples; [ ] = another dose, or the depositor's remark.

Structure,AID923,TSHR agonist,Resorufin autofl,A488 autofl,A647 fluor
CCC(CC)C(=O)NCc1ccc2c(c1)cc(C)n2C,1.1%,?,i,i,1.69e-08
Cc1cc(C(=O)Nc2sc3c(c2C#N)CCC(C(C)(C)C)C3)no1 (stereo not given),0.4%,14.3%,i,i,5.5e-09
O=C(c1cc(-c2cccs2)on1)N1CCN(c2ccccc2)CC1,0.4%,14.2%,i,i,1.73e-08
O=C1[C@@H]2C(c3ccccc3Cl)=NO[C@@H]2C(=O)N1Cc1ccccc1,-2.2%,3.16µM*,i,i,9.7e-09
COc1ccc(CCNS(=O)(=O)c2ccc3c(c2)CC(C)N3C(C)=O)cc1OC (stereo not given),-1.0%,7.6%,i,i,9.5e-09
Cc1ccc(NC(=O)COC(=O)CCc2c[nH]c(=O)[nH]2)cc1,3.9%,3.3%,i,i,1.29e-08
Cc1ccc(NC2=NC(c3ccc(C)cc3)n3c(nc(C)cc3=O)N2)cc1 (stereo not given),3.7%,-3.8%,i,i,5.6e-09
CC(C)(C)NS(=O)(=O)c1cccc(S(=O)(=O)c2cccc(S(=O)(=O)NC(C)(C)C)c2)c1,0.4%,1.1%,i,i,1e-09
COC(=O)CNc1nc(-c2ccncc2)nc2ccccc12,1.3%,·,i,i,1e-09
CCOC(=O)c1c(NC(=O)C2CCN(S(=O)(=O)c3cccs3)CC2)sc(C)c1C,-0.1%,12.5%,i,i,6.12e-08
CN(c1ccccc1C(=O)NCC1CCCO1)S(C)(=O)=O (stereo not given),-1.6%,-2.6%,i,i,5.47e-08
COc1ccc(NC(=O)Cn2nnc(-c3ccccc3NC(=O)c3ccco3)n2)cc1,-2.3%,25.2%,i,i,4.5e-09
ClC/C=C/CCl,2.6%,-0.9%,·,·,·
Cc1ccc(Nc2ncccc2C(=O)O)cc1C,-0.9%,3.5%,i,i,9.6e-09
COc1cc(C(=O)Oc2ccccc2N)cc(OC)c1OC,1.6%,3.16µM*,·,·,·
FC(F)(F)c1nc(N2CCN(c3ccccc3)CC2)nc2c1CCCCC2,1.3%,6.6%,i,i,7.4e-09
O=C(NCN1C(=O)C2C3C=CC(C3)C2C1=O)Nc1ccccn1 (stereo not given),-0.1%,·,i,i,5.7e-09
CCCCSc1nc2c(c(=O)n1CC)SC(C)C2 (stereo not given),-0.2%,?,·,·,·
CS(=O)(=O)Nc1cccc(-c2nc(N3CCNCC3)c3ccccc3n2)c1,-1.3%,20.7%,i,i,1e-09
O=C(NCc1cccnc1)C1CCN(C(=O)c2ccc(Cl)cc2Cl)CC1,0.0%,13.2%,i,i,1.11e-08
Cc1ccccc1N1CCN(C(=O)C2CCCCC2)CC1,0.9%,·,i,i,1e-09
Cc1cc(=O)oc2c1ccc1oc(/C(=N/O)c3ccccc3)c(C)c12,-0.6%,?,·,·,·
N#Cc1ccccc1Cn1c(=O)n(-c2ccc(CC(=O)NCc3ccco3)cc2)c(=O)c2sccc21,-1.3%,6.6%,·,·,·
CSCC[C@H](NC(=O)CCn1nnc2ccccc2c1=O)C(=O)O,0.3%,1.3%,i,i,1e-09
CCOC(=O)c1ccc(CSc2ncn[nH]2)o1,·,·,i,i,7.85e-08
CCOC(=O)N1CCN(C(=O)CSCC(=O)Nc2nc(-c3ccccc3)cs2)CC1,3.9%,?,i,i,1e-09
CN(C)c1ccc(C(=O)OCC(=O)c2cccs2)cc1,2.9%,-7.6%,i,i,1e-09
CNC(=O)[C@H](C)[C@H]1C[C@]1(C)[C@H](NC(=O)OCc1ccccc1)c1ccccc1,-0.4%,?,·,·,·
C=CCc1ccc(OCCCCCN2CCOCC2)c(OC)c1,-0.4%,?,i,i,1e-09
COC(=O)c1c(S(N)(=O)=O)c2ccccc2n1C,-0.7%,-5.0%,·,·,·
O=C(CNC(=O)c1ccco1)OCc1cccc(Cl)c1,-0.1%,·,i,i,2.28e-08
NCCc1nnc(SCc2ccccc2F)o1,-1.3%,18.9%,i,i,4.7e-09
CC(C)(C)NC(=O)CSc1ncnc2c1nnn2Cc1ccccc1Cl,1.0%,?,i,i,5.37e-08
O=C1C[C@@H](O)[C@@H](O)[C@@H]2[C@H]3C(=O)N(c4ccc(F)cc4F)C(=O)[C@@H]3CC[C@@H]12,-2.2%[11.5 µM],-1.2%[11.4 µM],·,·,·
Cc1cc(C)n(S(=O)(=O)c2cc(C(=O)O)c(Cl)cc2Cl)n1,0.1%,15.8µM*,i,i,7.4e-09
Cc1ccc(Nc2cc(-n3nc(C)cc3C)ncn2)c(C)c1,0.5%,7.7%[11.4 µM],·,·,·
CC(C)NC(=O)c1cc(-c2ccc(Br)cc2)on1,-0.1%,-1.8%,i,i,1.1e-09
O=C(Nc1ccc(C(F)(F)F)cc1Cl)c1ccc(Cn2cc(Br)cn2)o1,0.9%,18.8%,i,i,6.02e-08
C/C(=N/NC1=NCCN1)c1cn(C2=NCCN2)nc1C,-5.5%[11.5 µM],-3.0%[11.4 µM],i,i,1e-09
C=CCNC(=O)NS(=O)(=O)c1ccc(C)cc1,0.3%,0.9%,i,i,4.65e-08
O=c1c2ccccc2nc2n1CC/C2=C/N1CCN(c2cccc(C(F)(F)F)c2)CC1,1.2%,-2.3%[11.4 µM],i,i,2.05e-08
Cc1ccc(-c2nc3cnccn3c2Nc2ccc3c(c2)OCO3)o1,-1.1%,-5.6%,·,·,·
Cc1ccc(C(C)C)c(OCC(O)CN2CCOCC2)c1 (stereo not given),1.4%,26.7%,i,i,2.4e-09
COc1ccc(C2C(=O)N(C3CCCCC3)CC(=O)N2Cc2ccco2)cc1 (stereo not given),0.4%,12.0%,i,i,1.93e-08
COc1c(O)cccc1-c1nnn(CCC(=O)OCC(=O)c2ccccc2)n1,0.1%,0.8%,i,i,3.3e-09
O=C(CSc1nnc(-c2ccccc2F)n1C1CCCCC1)N1CCCC1,-0.9%,3.3%,i,i,1e-09
O=C(CCCOc1ccccc1)Nc1cccc(C(=O)O)c1,0.0%,-0.4%,·,·,·
COc1ccc2c(=O)c3c(=O)n(Cc4ccco4)c(-c4ccccc4)nc3oc2c1,-0.8%,18.0%,i,i,1e-09
Cc1c(NC(=O)C(C)OC(=O)COc2cccc3c2OC(C)(C)C3)c(=O)n(-c2ccccc2)n1C (stereo not given),0.2%,5.7%,i,i,5e-09
Cc1onc(-c2ccccc2Cl)c1C(=O)NCC(=O)O,3.5%,12.8%,i,i,1.06e-08
[O-][N+]1(CC[N+]2([O-])CCCCC2)CCCCC1,4.4%[11.5 µM],7.5%[11.4 µM],i,i,1e-09
CCOC(=O)N1CCN(S(=O)(=O)c2ccc3c(c2)oc(=O)n3C)CC1,1.5%,10.1%,i,i,3.8e-09
CCc1ccccc1NC(=O)C(C#N)Cc1cccnc1 (stereo not given),-1.0%,-2.1%,i,i,2.54e-08
CCOC(=O)NC(Nc1ccc(C)cn1)(C(F)(F)F)C(F)(F)F,1.8%,3.1%,·,·,·
CC1(C)CCCC2=C1CC1C(=O)N(O)C(=O)C1C2 (stereo not given),2.3%,7.4%,·,·,·
COCCNC(=O)Nc1ccc2c(c1)N(C)C(=O)CS2,-1.8%,5.0%,i,i,4.22e-08
COc1cccc(-n2c(Cc3cc(=O)[nH]c(=O)[nH]3)nnc2SCc2cccnc2)c1,-1.2%,5.1%,·,·,·
COc1ccc(NC(=O)Cn2nc(C(F)(F)F)c3c2CCCC3)c(OC)c1,-1.4%,?,i,i,2.52e-08
CCCSC1=N/C(=C\C=C\c2ccco2)C(=O)S1,-0.2%,9.1%,·,·,·
NCCCCCc1nnc(SCC(=O)Nc2cccc(Cl)c2)o1,1.0%,15.8µM*,i,i,2.1e-09

(cont.)
Structure,AID923,TSHR agonist,Resorufin autofl,A488 autofl,A647 fluor
COCCn1nnnc1C(C(C)C)N(Cc1cccnc1)Cc1cc2cc(OC)ccc2[nH]c1=O (stereo not given),0.3%,?,i,i,2.19e-08
CC1CCCN(S(=O)(=O)c2ccc(S(=O)(=O)N3CCCN(Cc4ccccc4)C3)cc2)C1 (stereo not given),1.4%,3.3%,i,i,1.93e-08
CN(C)S(=O)(=O)c1cccc(C(=O)NCc2ccco2)c1,-0.7%,2.5%,i,i,1.95e-08
Cn1c(=O)c2c(nc(NCCc3ccccc3)n2CC(=O)NCCc2ccccc2)n(C)c1=O,-0.4%,1.8%,i,i,1.47e-08
Nc1ccc(N2CCOCC2)c(Cl)c1,-0.5%,0.3%,i,i,3.01e-08
CCOc1ccc(NC(=O)Nc2ccc3nccnc3c2)cc1,-0.9%,-12.1%,·,·,·
COc1ccc(N=C2SCC(=O)N2c2ccc(OC)cc2)cc1,0.9%,0.3%,i,i,1.34e-08
CCn1c(=O)cc(SCC(=O)NCc2cccnc2)c2ccccc21,-1.5%,?,i,i,7.3e-09
N#Cc1nc(COc2ccccc2F)oc1N1CCCCCC1,-0.7%,?,i,i,5.3e-09
COc1ccc(C2=NCC(CSc3nnc(-c4ccc5c(c4)OCO5)o3)S2)cc1 (stereo not given),2.4%,?,i,i,1e-09
Cc1noc(C)c1C(=O)OCC(=O)Nc1ccccc1C(=O)NC(C)c1ccccc1 (stereo not given),-0.3%,?,i,i,1e-09
O=C(c1ccc(S(=O)(=O)N2CCOCC2)cc1)N1CCN(c2cccc(Cl)c2)CC1,-2.4%,-1.5%,i,i,9.7e-09
CC(C)(C)NC(=O)C1N(c2cccnc2)C(=O)C2C(C(=O)Nc3ccccc3)C3(C)C=CC21O3 (stereo not given),2.6%,0.1%,i,i,6.2e-09
COc1cc(CN2CCN(C(=O)CC(C)C)CC2)cc(OC)c1O,-1.2%,-4.7%,i,i,7.6e-09
O=S(=O)(c1ccc(OCC(O)CN2CCN(c3ccccc3Cl)CC2)cc1)N1CCOCC1 (stereo not given),-3.7%,?,i,i,1e-09
COCCCNC(=O)Cn1ncc2c(=O)oc3ccccc3c21,0.1%,-2.3%,i,i,4.9e-09
O=C(CSc1nnc(Cn2c(=O)sc3ccccc32)n1-c1ccccc1)N1CCOCC1,-0.8%,-1.2%,i,i,3.58e-08
CCOC(=O)CSc1nnnn1-c1cc(OC)c(Cl)cc1OC,0.6%,2.5%,i,i,2.59e-08
COc1cc(C2C(C(=O)c3ccc(C)o3)=C(O)C(=O)N2Cc2cccnc2)ccc1O (stereo not given),1.5%,0.8%,i,i,5.16e-08
CC(C)c1ccc(Cn2ccc3c4c(N)nc(NC5CC5)nc4ccc32)cc1,-3.9%,?,·,·,·
CCN(CCCNC(=O)c1c(C)cc(=O)oc1C)c1cccc(C)c1,-0.2%,11.0%,i,i,2.09e-08
COc1ccccc1-n1c(=O)c2c3c(sc2n2c(SC(C)C)nnc12)CCC3,·,·,i,i,2.7e-09
Cc1cnc(CNc2ncnc3ccc(-c4c(C)noc4C)cc23)cn1,3.4%,·,i,i,6.5e-09
CNCCCC1c2ccccc2C=Cc2ccccc21,-1.2%[25.7 µM],-4.8%[25.6 µM],i,i,2.1e-09&5.36e-08&5.3e-09

Not all compounds are listed (hit frequency here may not be typical).
